Compound activity (PubChem)
CFTR F508del = compounds raising F508del-CFTR protein level – cell-based, HeLa F508del-CFTR, immunofluorescence, viability, primary screen (AID 1224863); 10,000 compounds, 0.1% hits; calls, or highest fold increase where a dose series was run; HeLa F508del-CFTR, immunofluorescence total CFTR, 24 h; by the record results were divided by relative cell number; some inactives read as strong as hits; in the data nearly all actives have a first-pass fold increase above 1.5; a few of its hits are not listed in these tables;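 also: total CFTR protein by anti-CFTR immunofluorescence in fixed cells; first pass at 25 µM or 10 µg/mL by library and series up to twice that; 1 = untreated cells; first-pass hits also needed half or more of the cells alive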
CFTR F508del fold 25 µM = further read-out of CFTR F508del, marked with its call; fold increase; measured here: primary screen single dose 25 uM; library dosed in µM
CFTR F508del fold 10 ug/mL = further read-out of CFTR F508del, marked with its call; fold increase; measured here: primary screen 10 ug/mL
CFTR F508del viability 25 µM = recorded beside CFTR F508del, whose call it bears; viability, %; measured here: primary viability 25 uM; library dosed in µM;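 0% = killed and 100% = untreated cells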
CFTR F508del viability 10 ug/mL = further read-out of CFTR F508del, marked with its call; viability, %; measured here: primary viability 10 ug/mL;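 0% = killed and 100% = untreated cells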
Numbers without * were called inactive; i = inactive; . = not tested or not shown; & = joins results of further samples. Only part of the results is shown; rates above refer to the full screens.

SMILES | CFTR F508del | CFTR F508del fold 10 ug/mL | CFTR F508del viability 10 ug/mL | others
CNC(=O)NC(=O)CSc1nnc(C(F)(F)F)n1C | i | 0.94 | 100.0
Cc1cc(C(=O)CSc2nnnn2C)c(C)n1C1CCS(=O)(=O)C1 (stereo not drawn) | i | 1.05 | 87.0
CCN(CC)C(=O)N1CCN(C)CC1 | i | . | . | CFTR F508del fold 25 µM=1.14;CFTR F508del viability 25 µM=91.0
CCOC(=O)c1csc(N)n1 | i | 1.16 | 108.0
CC(C)CNC(=O)C(C)(C)C | i | 1.06 | 102.0
CCn1c(SCc2cn3cc(C(F)(F)F)cc(Cl)c3n2)nc2ccccc21 | i | 1.13 | 77.0
O=[N+]([O-])c1ccc(CSc2nnc(Nc3ccccc3)s2)cc1 | i | 1.02 | 82.0
CC1CN(S(=O)(=O)CCNC(=O)C2CC3CCC2C3)CC(C)O1 (stereo not drawn) | i | 0.94 | 100.0
C=CCn1c(SCCC23CC4CC(CC(C4)C2)C3)nnc1C1CCS(=O)(=O)C1 (stereo not drawn) | i | 0.97 | 84.0
CC1CCCN(S(=O)(=O)c2ccc(N3CCN(C(=O)N4CCCC4)CC3)c([N+](=O)[O-])c2)C1 (stereo not drawn) | i | 0.97 | 90.0
CC1CC1C(=O)NC1CCN(C(=O)C2CC2)CC1 (stereo not drawn) | i | 0.98 | 82.0
C=CCOC(=O)C1=C(C)N=c2s/c(=C\c3ccc(C)o3)c(=O)n2C1c1ccccc1 (stereo not drawn) | i | 1.08 | 88.0
CC(=O)O[C@]1(C(C)=O)CCC2C3C[C@H](C)C4=CC(=O)CC[C@]4(C)C3CC[C@@]21C (stereo partly drawn) | i | . | . | CFTR F508del fold 25 µM=1.08;CFTR F508del viability 25 µM=88.0
Cc1cc(C)c(C)c(SCCN2C(=O)NC(C)(C)C2=O)c1C | i | 1.01 | 84.0
CC(=O)NCCCS(=O)(=O)O | i | . | . | CFTR F508del fold 25 µM=1.11;CFTR F508del viability 25 µM=107.0
CC(C)(C)c1nc2cc(NS(=O)(=O)c3ccc4c(c3)OCCCO4)ccc2o1 | i | 0.93 | 77.0
Cc1c(C(=O)CN2C(=O)NC(C)(c3ccc4c(c3)OCO4)C2=O)oc2ccccc12 (stereo not drawn) | i | 0.82 | 94.0
CCc1nc(=S)c2ccccc2[nH]1 | i | 1.05 | 92.0
CCc1nnc(NC(=O)CCc2c(C)nc(SC)nc2C)s1 | i | 0.99 | 110.0
CCN(CC)S(=O)(=O)c1ccc(N2CCN(c3cnccn3)CC2)nc1 | i | 1 | 107.0

3 records drawn at random from the list so far, as already listed:
SMILES | CFTR F508del | CFTR F508del fold 10 ug/mL | CFTR F508del viability 10 ug/mL | others
CC1CCCN(S(=O)(=O)c2ccc(N3CCN(C(=O)N4CCCC4)CC3)c([N+](=O)[O-])c2)C1 (stereo not drawn) | i | 0.97 | 90.0
C=CCOC(=O)C1=C(C)N=c2s/c(=C\c3ccc(C)o3)c(=O)n2C1c1ccccc1 (stereo not drawn) | i | 1.08 | 88.0
CC1CC1C(=O)NC1CCN(C(=O)C2CC2)CC1 (stereo not drawn) | i | 0.98 | 82.0

The listing continues:
SMILES | CFTR F508del | CFTR F508del fold 10 ug/mL | CFTR F508del viability 10 ug/mL | others
CS(=O)(=O)N1CCC(NC(=O)CCC(=O)Nc2nccs2)CC1 | i | 1.01 | 91.0
Cc1cccc(-n2nnnc2SCc2ccc(-n3ccnc3)cc2)c1C | i | 0.91 | 92.0
Fc1ccc(-c2csc3ncnc(N4CCC4)c23)cc1 | i | 1.07 | 90.0
NC(CN1CCCC1=O)c1ccccc1 (stereo not drawn) | i | 1.07 | 104.0
CN(CCCNC(=O)CC1C=CCC1)S(C)(=O)=O (stereo not drawn) | i | 0.93 | 91.0
CCOC(=O)c1c(NC(=O)N(C)C(C)C2CC2)sc(C)c1C (stereo not drawn) | i | 0.85 | 89.0
C=CCn1c(SC2CCCCNC2=O)nnc1C1CCS(=O)(=O)C1 (stereo not drawn) | i | 1 | 98.0
Cc1ccc(-n2c(SCc3ccc(C(C)(C)C)cc3)nnc2-c2cccnc2)c(C)c1 | i | 0.88 | 82.0
CC(=O)c1c(C)[nH]c(C(=O)OCC(=O)NC(=O)NCC(C)C)c1C | i | 1.02 | 84.0
CC(C)C(NC(=O)C12CC3CC(CC(C3)C1)C2)C(=O)N1CCCC1 (stereo not drawn) | i | 0.94 | 99.0
c1cc(CNCc2ccc(-n3cncn3)nc2)cc(OC2CCCC2)c1 | i | 0.91 | 87.0
CCCNCC(=O)NC(=O)NC1CCCC1 | i | 0.95 | 113.0
Cc1nccc(C(=O)O)n1 | i | 0.97 | 102.0
CC(C)(C)n1nnnc1SCCS(=O)(=O)c1cc(Cl)ccc1Cl | i | 1.08 | 100.0
CCCCCCCCCNC | i | 1.03 | 93.0
O=C1CN(C(=O)CSc2nnnn2C2CCCC2)C2(CCCCC2)C(=O)N1 | i | 1.18 | 104.0
CC(C)(C)OC(=O)N1CCN(C(=O)Nc2ccccc2N2CCCC2)CC1 | i | 1.04 | 88.0
O=c1[nH]cnc2c1ncn2[C@H]1CC[C@@H](CO)O1 | i | . | . | CFTR F508del fold 25 µM=1.07;CFTR F508del viability 25 µM=83.0
O=C(Cn1nnc2ccccc2c1=O)c1ccc2c(c1)CCC2 | i | 1.05 | 100.0
O=C(CSc1nnc(C2CC2)n1C1CC1)N1N=C(c2ccco2)CC1c1cccs1 (stereo not drawn) | i | 0.87 | 106.0
CC(Sc1n[nH]c(CCC2CCCC2)n1)C(=O)NC(N)=O (stereo not drawn) | i | 1 | 87.0
CN(C)c1nc(N)nc(COC(=O)C2(S(=O)(=O)c3ccccc3)CCCC2)n1 | i | 0.97 | 76.0
CN(Cc1ccc(Cl)cc1Cl)S(=O)(=O)N1CCOCC1 | i | 0.95 | 97.0
CC1CN(S(=O)(=O)c2ccc(S(=O)(=O)N(C)C)cc2)CC(C)O1 (stereo not drawn) | i | 0.99 | 94.0
CC(C)N1C(=O)C(=O)N(Cc2ccc(C#N)cc2)C1=O | i | 0.87 | 104.0
Cc1nc(NC(=O)CCc2c(C)nn(CCC#N)c2C)sc1SCC(N)=O | i | 0.95 | 90.0
O=S(=O)(Nc1c(F)cccc1F)c1ccc(Br)s1 | i | 1 | 103.0
NC[C@H]1O[C@H](O[C@H]2[C@H](O)[C@@H](O[C@H]3O[C@H](CO)[C@@H](O)[C@H](N)[C@H]3O)[C@H](N)C[C@@H]2N)[C@H](N)C[C@@H]1O | i | . | . | CFTR F508del fold 25 µM=1.04&0.97;CFTR F508del viability 25 µM=91.0&108.0
Cn1nnn(-c2cccs2)c1=O | i | 1.13 | 100.0
C[C@H](N[C@@H](CCc1ccccc1)C(=O)O)C(=O)N1Cc2ccccc2C[C@H]1C(=O)O | i | . | . | CFTR F508del fold 25 µM=1;CFTR F508del viability 25 µM=84.0
CC(C)n1ncc2cc(NS(=O)(=O)c3ccc([N+](=O)[O-])cc3)cnc21 | i | 1.11 | 88.0
O=C(CC1CCCC1)NC1CCCCCC1 | i | 1.01 | 108.0
CC(C)(C)C(=O)N1CCN(S(=O)(=O)c2ccc3c(c2)OCCO3)CC1 | i | 1 | 87.0
O=C(COC(=O)c1cc(=O)c2ccccc2o1)Nc1cccc(I)c1 | i | 1.07 | 94.0
CC(C)CCCC(C)NC(=O)c1ccc2c(c1)NC(=O)CCS2 (stereo not drawn) | i | 0.75 | 79.0
COc1ccc(OC)c2c1CN(Cn1nnc3ccccc3c1=O)CC2O (stereo not drawn) | i | 0.87 | 82.0
CC(C)(C)CC(C)(C)c1ccc(OCCOCC[N+](C)(C)Cc2ccccc2)cc1 | i | . | . | CFTR F508del fold 25 µM=0.58;CFTR F508del viability 25 µM=3.0
O=c1[nH]c2ccccc2n1CCCSc1nncs1 | i | 0.95 | 94.0
Cc1ccc(C(=O)OC2CCOC2=O)cc1O (stereo not drawn) | i | 0.99 | 106.0
Nc1nccnc1C(=O)N1CCN(c2nccs2)CC1 | i | 1.03 | 79.0

An excerpt from above in order of length of the SMILES, high to low.
SMILES | CFTR F508del | CFTR F508del fold 10 ug/mL | CFTR F508del viability 10 ug/mL | others
CC(C)n1ncc2cc(NS(=O)(=O)c3ccc([N+](=O)[O-])cc3)cnc21 | i | 1.11 | 88.0
O=C(COC(=O)c1cc(=O)c2ccccc2o1)Nc1cccc(I)c1 | i | 1.07 | 94.0
COc1ccc(OC)c2c1CN(Cn1nnc3ccccc3c1=O)CC2O (stereo not drawn) | i | 0.87 | 82.0

Entries listed so far with a cyano group:
SMILES | CFTR F508del | CFTR F508del fold 10 ug/mL | CFTR F508del viability 10 ug/mL | others
CC(C)N1C(=O)C(=O)N(Cc2ccc(C#N)cc2)C1=O | i | 0.87 | 104.0
Cc1nc(NC(=O)CCc2c(C)nn(CCC#N)c2C)sc1SCC(N)=O | i | 0.95 | 90.0

Additional entries follow:
SMILES | CFTR F508del | CFTR F508del fold 10 ug/mL | CFTR F508del viability 10 ug/mL | others
CC(N(C)Cc1cc(=O)n2cc(Cl)ccc2n1)C(C)(C)C (stereo not drawn) | i | 0.92 | 97.0
CC1CCCCC1NC(=O)C1CC=CCC1 (stereo not drawn) | i | 1.05 | 101.0
CN(Cc1ccccc1)c1nnnn1-c1ccccc1 | i | 1.13 | 81.0
C=CCNC(=O)N1CCN(c2ncccn2)CC1 | i | 0.98 | 101.0
CC(=O)NCc1c(I)c(NC(C)=O)c(I)c(C(=O)O)c1I | i | . | . | CFTR F508del fold 25 µM=1.07;CFTR F508del viability 25 µM=90.0
C=CCn1c(-c2cccnc2)nn(CN2CCCC3CCCCC32)c1=S (stereo not drawn) | i | 1.08 | 100.0
CN(C)CC(c1ccc(O)cc1)C1(O)CCCCC1 (stereo not drawn) | i | . | . | CFTR F508del fold 25 µM=1.12;CFTR F508del viability 25 µM=92.0
CCN(CC)S(=O)(=O)N1CCN(Cn2ccn(-c3cc(C)ccc3C)c2=S)CC1 | i | 0.96 | 91.0
O=S(=O)(CCSc1nnnn1-c1ccc(OC(F)(F)F)cc1)c1ccc(Br)cc1 | i | 1.01 | 110.0
O=S(=O)(Nc1ccc2c(c1)OCCCO2)c1ccc(F)c(F)c1F | i | 1.15 | 88.0
CCCCC1(COC(=O)CCC(=O)O)C(=O)N(c2ccccc2)N(c2ccccc2)C1=O | i | . | . | CFTR F508del fold 25 µM=1.12;CFTR F508del viability 25 µM=93.0
CN(Cc1ccc(C(C)(C)C)cc1)CN1C(=O)NC2(CCCC2)C1=O | i | 1.01 | 92.0
Cc1cccc(CN2CCN(C(c3ccccc3)c3ccc(Cl)cc3)CC2)c1 (stereo not drawn) | i | . | . | CFTR F508del fold 25 µM=1.07;CFTR F508del viability 25 µM=97.0
O=C1N=C(N2CCOCC2)S/C1=C\c1cc(Br)cs1 | i | 1.05 | 86.0
O=C1NC2(CCCC2)C(=O)N1Cc1nnc(-c2ccc(Br)o2)o1 | i | 1.01 | 96.0
NC(=O)Cc1cccc(C(=O)c2ccccc2)c1N | i | . | . | CFTR F508del fold 25 µM=1;CFTR F508del viability 25 µM=76.0
O=C(Nc1ccccc1I)NC1CCCC1 | i | 0.96 | 94.0
O=S(=O)(c1cccs1)N1CCCC1c1ccccc1 (stereo not drawn) | i | 1.02 | 87.0
Cc1csc(/C(C#N)=C\c2cc(C)n(C3CC3)c2C)n1 | i | 1 | 100.0
N#Cc1c(NC(=O)CNc2cc3c(cc2[N+](=O)[O-])OCCO3)sc2c1CCC2 | i | 1.04 | 79.0
Cc1cc(C(=O)NCCCOC(C)C)no1 | i | 1.01 | 110.0
CN(C)C(=O)CNC(=O)/C=C/c1ccnn1C | i | 1.12 | 87.0
Cn1c(-c2ccco2)nn(CN2CCc3ccccc3C2)c1=S | i | 1.06 | 98.0
Cc1cc(NC(=O)CSc2nc3ccsc3c(=O)n2C)no1 | i | 0.95 | 102.0
C[C@]12CCC(=O)C=C1CCC1C2[C@@H](O)C[C@@]2(C)C1CC[C@]2(O)C(=O)CO (stereo partly drawn) | i | . | . | CFTR F508del fold 25 µM=0.93;CFTR F508del viability 25 µM=95.0
CC(=O)Oc1ccccc1C(=O)O | i | . | . | CFTR F508del fold 25 µM=0.96&1.16;CFTR F508del viability 25 µM=93.0&98.0
CC(NC(=O)C1CCCC1)c1ccc(Cl)s1 (stereo not drawn) | i | 1.02 | 96.0
CC(C#N)Sc1nnc(-c2c[nH]c3ccccc23)o1 (stereo not drawn) | i | 1 | 87.0
c1cc(CNc2ncnc3ccsc23)cc(CN2CCCC2)c1 | i | 1.11 | 86.0
S=c1nc(CC2CCCC2)[nH][nH]1 | i | 0.95 | 84.0
CN(C)S(=O)(=O)c1ccc2c(c1)CCN2C(=O)C12CCC(=O)N1c1ccccc1S2 (stereo not drawn) | i | 1.01 | 96.0

3 neighbouring compounds from above:
SMILES | CFTR F508del | CFTR F508del fold 10 ug/mL | CFTR F508del viability 10 ug/mL | others
Cc1cc(C(=O)NCCCOC(C)C)no1 | i | 1.01 | 110.0
CN(C)C(=O)CNC(=O)/C=C/c1ccnn1C | i | 1.12 | 87.0
Cn1c(-c2ccco2)nn(CN2CCc3ccccc3C2)c1=S | i | 1.06 | 98.0
